hNpr1 antagonist = Natriuretic polypeptide receptor (hNpr1) antagonism - Primary qHTS. Atrial natriuretic peptide receptor 1 (Homo sapiens), P16066. 1.6% of 76,000 active. HEK293 hNpr1 GloSensor cGMP, ANP-stimulated luminescence. AID 1347048, 2019. Potency, µM (highest dose often 46.3 µM), without a hit: at the top dose activity change, negative = inhibition, hits mostly inhibitors; active = well fitted inhibition curve with a large enough effect; inconclusive = small, poorly fitted or top-dose-only effect; inactive = no such curve, though single readings can be large or run the other way;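 also: nearly all actives have a fitted effect of over 60% in size; nearly all hits also lower the signal before the agonist is added; a reference antagonist and vehicle were the controls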
Target sequence (P16066 whole entry, looked up): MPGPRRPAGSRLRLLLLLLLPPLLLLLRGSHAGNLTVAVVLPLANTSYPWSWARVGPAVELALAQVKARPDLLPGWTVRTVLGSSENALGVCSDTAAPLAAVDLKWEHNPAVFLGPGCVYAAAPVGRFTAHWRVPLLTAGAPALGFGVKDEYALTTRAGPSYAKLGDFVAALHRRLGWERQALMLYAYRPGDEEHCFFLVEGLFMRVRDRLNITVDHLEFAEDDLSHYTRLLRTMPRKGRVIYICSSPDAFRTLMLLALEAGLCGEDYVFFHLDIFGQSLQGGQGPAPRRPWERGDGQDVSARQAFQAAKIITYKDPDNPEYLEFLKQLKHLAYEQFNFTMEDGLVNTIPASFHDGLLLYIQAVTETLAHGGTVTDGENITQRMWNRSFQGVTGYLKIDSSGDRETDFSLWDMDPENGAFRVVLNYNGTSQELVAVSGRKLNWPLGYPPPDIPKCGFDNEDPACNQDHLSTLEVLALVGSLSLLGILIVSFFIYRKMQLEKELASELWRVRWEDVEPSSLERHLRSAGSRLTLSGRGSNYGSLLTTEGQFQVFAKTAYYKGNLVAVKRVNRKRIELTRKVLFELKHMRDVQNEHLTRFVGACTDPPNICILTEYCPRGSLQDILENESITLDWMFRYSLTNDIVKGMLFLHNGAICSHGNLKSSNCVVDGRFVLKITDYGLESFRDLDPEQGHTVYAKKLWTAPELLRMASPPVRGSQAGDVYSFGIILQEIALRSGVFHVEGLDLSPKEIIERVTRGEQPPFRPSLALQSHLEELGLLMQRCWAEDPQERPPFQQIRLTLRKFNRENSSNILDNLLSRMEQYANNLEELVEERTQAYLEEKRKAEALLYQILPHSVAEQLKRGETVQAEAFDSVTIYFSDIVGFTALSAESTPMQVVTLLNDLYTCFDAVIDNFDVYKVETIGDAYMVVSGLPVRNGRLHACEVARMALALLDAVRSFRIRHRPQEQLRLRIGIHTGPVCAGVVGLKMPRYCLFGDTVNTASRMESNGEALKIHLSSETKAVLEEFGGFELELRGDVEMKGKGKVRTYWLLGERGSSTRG
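HEK293 cells stably expressing human Npr1 and cGMP GloSensor pGS-40F, loaded 2 h with 2% GloSensor reagent, given compound 30 min at room temperature. Luminescence read before and 20 min after 0.1 nM hNppA.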
* marks the source's active call; other numbers are inactive results; ? = inconclusive; & = joins results of further samples; [ ] = dose if it differs, or a comment. % is scaled to controls: 0 for no effect and ±100 for the full control effect; potency is read from the fitted curve at half-maximal effect. Not all compounds are listed, so the mix of outcomes need not match the whole.

SMILES	hNpr1 antagonist
COc1ccc(CNC(=O)CN2C(=O)NC3(CCC(C)CC3)C2=O)cc1 (configuration not stated)	0%
CCOc1ccccc1C(=O)NC1CCN(C(=O)c2cc3c(=O)[nH]c(C)cn3n2)CC1	0%
Cc1ccccc1C(=O)NCc1c[nH]c2ncccc12	-3%[70.6 µM]
O=C(OCc1ccccc1)N1CCOCC12CCN(Cc1ccncc1Cl)CC2	-3%[70.6 µM]
O=C(NCCn1ccn2nc(-c3ccc(F)cc3)cc2c1=O)c1ccc(F)c(Cl)c1	-17%
CN1CCC(NC(=O)CC2(Cc3ccccc3)C(=O)N(C)c3ccccc32)CC1 (configuration not stated)	4%
Cc1ccc(-c2cccc(C(=O)N3CCCC(O)(CN4CCCC4)C3)c2)o1 (configuration not stated)	0%
COc1cccc(-c2cc3c(=O)n(CCNC(=O)c4ccc(C#N)cc4)ccn3n2)c1	-9%
O=C1NC2(CCN(Cc3ccc(OC(F)(F)F)cc3)CC2)COc2ccccc21	4%
COc1ccc(C(=O)NC[C@@H]2C=C(C)[C@H](Cc3nc4ccncc4[nH]3)C[C@H]2C(C)C)cc1	-27%[70.6 µM]
O=C(NCc1ccc(F)cc1)C1CCCN(c2nc3ncccc3o2)C1 (configuration not stated)	0%
CCOCCOC1CCN(S(=O)(=O)c2c(C)noc2C)CC1	0%
CCCN(C)c1nccnc1OC1CCN(C(=O)C(CC)CC)C1 (configuration not stated)	-14%
Cc1ccc2c(c1)nc1n2[C@@H](CNC(=O)c2ccc(C#N)cc2)COC1	-2%[70.6 µM]
COc1cc(CNC(=O)c2cc(-c3ccc(F)cc3)cc3ncn(C)c23)ccn1	-11%[70.6 µM]
Cc1nc(CCNC(=O)C2CCCN(c3nc(-c4ccccc4)nc4c3CCC4)C2)n[nH]1 (configuration not stated)	0%
COc1ccccc1CN(Cc1ccccc1C)C(=O)[C@H]1CCC[C@H](O)C1	2%
Cc1cnc(CCNC(=O)Nc2ccc3c(c2)OCCO3)n1C1CCC1	-22%
CNC(=O)N1CCC(C2CCN(C(=O)CCc3ccccc3)C2)CC1 (configuration not stated)	2%
Cc1ccc(-n2cc(CN3CCN4CCCC4C3)c(-c3cccc(C)c3)n2)cc1 (configuration not stated)	-3%

Part of the list above, with each value named.
> O=C1NC2(CCN(Cc3ccc(OC(F)(F)F)cc3)CC2)COc2ccccc21
  hNpr1 antagonist: 4%

> COc1ccc(C(=O)NC[C@@H]2C=C(C)[C@H](Cc3nc4ccncc4[nH]3)C[C@H]2C(C)C)cc1
  hNpr1 antagonist: -27%[70.6 µM]

> O=C(NCc1ccc(F)cc1)C1CCCN(c2nc3ncccc3o2)C1 (configuration not stated)
  hNpr1 antagonist: 0%

> CCOCCOC1CCN(S(=O)(=O)c2c(C)noc2C)CC1
  hNpr1 antagonist: 0%

Carrying on.
SMILES	hNpr1 antagonist
Cc1ncc(C(=O)NC(c2ccccc2)c2nnc(N)s2)c(=O)[nH]1 (configuration not stated)	7%
Cc1cc(CN2CCC3(CC2)CCN(Cc2c(C)n[nH]c2C)CC3CO)on1 (configuration not stated)	-4%
COc1cc(OC)cc(C(=O)NCC2CCCN(Cc3cc4ccccc4o3)C2)c1 (configuration not stated)	-1%
COc1cccc(CC(=O)N2C[C@@H](Oc3ccccc3)C[C@@H]2C(=O)N2CCOCC2)c1	0%
Cn1c(=O)n([C@H]2CCCN(C(=O)c3ccc4nc[nH]c4c3)C2)c2ncccc21	-13%
NCCC(=O)N1CCC(n2nccc2NC(=O)Nc2cccc(F)c2)CC1	1%
COc1ccc(CN2CCNc3cc(-c4ccccc4)ncc3C2)cn1	-14%[70.6 µM]
Cc1ccc(CN2CC(C(=O)NCCc3ccncc3)C3(CCOCC3)C2)s1 (configuration not stated)	0%
COc1ccc(C)cc1NC(=O)N1CCCC1c1nncn1C1CCCC1 (configuration not stated)	-2%
O=C(Nc1ccnn1C1CCN(Cc2nccs2)CC1)c1ccc2c(c1)OCO2	1%
CN1CCCCCCN(C(=O)c2ccc3ncccc3c2)[C@H]2CCC[C@H]2C1=O	2%
COc1ccc(C(=O)N2CCCC(O)(CN3CCCC3)C2)c(OC)c1 (configuration not stated)	3%
c1cncc(-c2nnc3n2CCN(Cc2cncs2)C3)c1	7%[70.6 µM]
COc1ccc(OC)c(NC(=O)Cn2c(C)cc3nc4n(c(=O)c32)CCCCC4)c1	1%
CC(NC(=O)c1cc2n(n1)CC(c1ccc(Cl)cc1)OC2)c1ccccc1 (configuration not stated)	1%
O=C(CCc1ccccc1)N1CCN(c2cc(-c3cccs3)[nH]n2)CC1	-5%
Oc1ccc(-c2nc(C3CC3)nc3c2CN(Cc2ccncc2)CC3)cc1	1%
Cc1noc(C)c1CCC(=O)N[C@@H]1CN(c2ccncn2)C[C@H]1CN(C)C	4%
O=C(Cc1ccc(N(Cc2ccccc2)C(=O)c2ccco2)cc1)N1CCOCC1	-14%
COCC1(c2nc(C3CCOCC3)nn2C(C)(C)C)CC1	0%
N#Cc1ccc(CN2CCC(c3nc4ccncc4[nH]3)C2)cc1 (configuration not stated)	-5%[70.6 µM]
O=C(NCc1ccc2c(c1)OCO2)[C@@H]1C[C@@H](c2ccc(F)cc2)N(CCOc2ccccc2)C1	-5%
O=C1CS(=O)(=O)C2(CCNCC2)N1	0%
CC(C)N1CCC(OCCCNC(=O)C2CCCCC(=O)N2)CC1 (configuration not stated)	1%
Cc1cnc(CC2CCN(C(=O)C(C)C)C2)n1C1CC1 (configuration not stated)	6%
COCC(=O)N[C@H]1CC[C@]2(C)CCC([C@H](C)C(=O)NCc3ccccc3OC)[C@H](O)[C@H]2[C@@H]1C (some centres not stated)	2%
O=C(NCC1(COc2cnccn2)C[C@@H](O)[C@@H](O)C1)c1nc2ccccc2[nH]1 (some centres not stated)	-1%
Cn1ccc(C(=O)N2CCC3(CC2)OC(=O)N(Cc2ccccc2F)C3(C)c2ccccc2)n1 (configuration not stated)	-1%
CC(Oc1ccccc1)C(=O)NC1CCN(c2cc(C(F)(F)F)ncn2)CC1 (configuration not stated)	?
CCCS(=O)(=O)N1C[C@@H]2C(=O)N(CCC3CCN(C(C)C)CC3)C(=O)[C@@H]2C1	6%
CCC1Oc2ccc(NC(=O)c3ccc(F)cc3F)cc2CN(Cc2ccc3c(c2)OCO3)C1=O (configuration not stated)	-17%
c1cncc(-c2ccnc(N3CCCOC(Cn4cccn4)C3)n2)c1 (configuration not stated)	1%
COc1ccc(CN2C(=O)COC[C@H]2C(=O)Nc2ccc(OC)c(C(F)(F)F)c2)cc1	?
COc1ccc(-c2cc(N3CCCC(NC(=O)c4ccc(OC)c(F)c4)C3)n[nH]2)cc1 (configuration not stated)	-13%
COc1ccc(C(=O)N2[C@@H]3CC[C@H]2CC(NC(=O)c2ccc(F)cc2)C3)cn1 (some centres not stated)	5%
O=C(N[C@H](Cc1ccncc1)C1CC(O)C1)c1cccn1C1CC1 (some centres not stated)	-1%
CCC1(CO)CCCN(C(=O)CCc2ccc3c(c2)OCO3)C1 (configuration not stated)	-1%
Nc1nc2c(c(NC3CC3)n1)CCN(C(=O)CCCn1cncn1)CC2	21%
COc1ccc(C(=O)N2C(C(=O)NC(C)C)COC23CCN(C(=O)c2ccc(F)cc2)CC3)cc1 (configuration not stated)	-2%
CCCC(=O)N1CCCC(c2noc(COc3ccccc3)n2)C1 (configuration not stated)	0%
O=C1N(CC2CC2)CCOC12CCN([S+](=O)([O-])c1ccc(C(F)(F)F)cc1)CC2	11µM*
CN(CC1CCOC1)S(=O)(=O)c1cc(F)ccc1F (configuration not stated)	-6%
CCS(=O)(=O)Nc1ccc(C)n(CC(=O)NC2CCCCC2)c1=O	2%
Cc1cc(C)n(CCNC(=O)c2ccccc2OC2CCN(S(C)(=O)=O)CC2)n1	2%
COCCN1CCC(N2CCN(C(=O)CC3CCCC3)CC2)C1=O (configuration not stated)	2%
O=c1[nH]c(C2CCCN(Cc3ccc(F)cc3)C2)nn1-c1ccccc1 (configuration not stated)	-2%
COc1ccc(-c2ccnc(N[C@H]3CO[C@H]4[C@@H]3OC[C@@H]4NC(=O)CCC(=O)O)n2)cc1	7%[70.6 µM]
CSc1cccc(NC(=O)Nc2cccc(-c3ccc(N4CCOCC4)nn3)c2)c1	?
O=C(c1[nH]nc2c1CCc1ccccc1-2)N1CCC(c2noc(-c3ccccn3)n2)C1 (configuration not stated)	?
COc1ccc(Cn2c3c(c(=O)n2Cc2ccccc2)CCN(C(=O)c2cocn2)C3)cc1	8%
O=C(NCCc1noc(-c2ccncc2)n1)c1ccccc1F	-13%
O=C1CC(c2ccccc2)N(C(=O)CNS(=O)(=O)c2cccnc2)CCCCCN1 (configuration not stated)	2%
CCOc1cccc(CN(C)C(=O)CN2CC3(CCN(C)CC3)CC2=O)c1	6%
Cc1nn(C(=O)CCC(=O)N2CCC(CCOc3ccccc3F)C2)c2ccccc12 (configuration not stated)	-3%
CN(Cc1ccon1)C(=O)C1CC(=O)N(Cc2ccccn2)C1 (configuration not stated)	0%
Cc1ccc(-c2nc(C(=O)NCc3ccccc3C)no2)cc1	1%
CCNC(=O)N1CCCC1c1noc(CCC(=O)O)n1 (configuration not stated)	1%
COC(=O)[C@@H]1C[C@@H](N(C)C)CN1C(=O)c1ccccc1-c1ncc[nH]1	-1%
O=C(Cn1nc2n(c1=O)CCCC2)Nc1cccc(Br)c1	-2%
O=C1CCN(C2CCC2)CCCC(c2nc(-c3cccnc3)no2)CCN1 (configuration not stated)	16%
New compounds follow.
SMILES	hNpr1 antagonist
COc1ccc(C(=O)N2CC[C@@H]3NC(=O)[C@H]4C[C@H](NC(=O)C5CCCCC5)CN4C(=O)[C@H]32)cc1	0%
CC(C)NC(=O)C[C@@H]1C[C@H]2O[C@H](CNC(=O)NC(C)C)[C@@H](O)[C@H]2O1	2%[70.6 µM]
Cc1nn(-c2ccccn2)c(C)c1[C@@H]1C=C[C@@H](NC(=O)NC(C)C)C1	1%[70.6 µM]
COCC(=O)N1CCCN(c2cc(C3CC(O)C3)ncn2)CC1 (configuration not stated)	0%
COc1ccccc1-c1[nH]ncc1CN1CCn2nnc(CCC(=O)N3CCCC3)c2C1	13%
Cc1noc2c(-c3cn[nH]c3)cc(-c3ccccc3)nc12	?
CCn1ccc(C(=O)N2CCCC(c3ccccc3)(c3ccccc3)C2)cc1=O	-8%
CC1=NS(=O)(=O)N(Cc2ccccc2)C=C1C(=O)OCc1noc(C2CCCC2)n1	-25%
CCOc1cccc(CN2CCCC(c3[nH]ncc3-c3cccc(C(F)(F)F)c3)C2)c1O (configuration not stated)	1%
c1cc2c(cc1N1CCC(N[C@H]3C[C@@H]4OCC[C@H]34)CC1)CCC2	-1%
CN(C(=O)c1ccc2c(c1)NC(C)(COc1cccnc1)CO2)c1ccccc1 (configuration not stated)	3.2µM*
COC(=O)[C@H]1CN(C(=O)NC(C)C)CCN1C(=O)C1CCCCC1	-2%[70.6 µM]
COCCNC(=O)Cn1cccc1-c1nc(-c2ccc(OC)c(F)c2)no1	-1%
CN(C)C[C@@H]1CN(C2CCOCC2)C[C@H]1NC(=O)c1cn(C)cn1	-4%
C#CCN(C)Cc1nc(C2(O)CCN(C(=O)NCCC)CC2)cs1	1%[70.6 µM]
CCOc1ccc(-c2cc3c(=O)n(CCNC(=O)c4ccncc4)ccn3n2)cc1	-17%
O=C(Nc1ccccc1)O[C@@H]1CO[C@H]2[C@@H]1OC[C@@H]2NS(=O)(=O)c1cccc2cccnc12	-9%
O=C(NCC(F)F)C1CN(c2cccc(Cl)c2)C(=O)N1 (configuration not stated)	13%&13%[70.6 µM]
O=C1CN(Cc2ccccc2)CCN1c1ccc(Cl)nn1	7%[70.6 µM]
Cc1nc2cccnc2n1CC1CCCN(S(=O)(=O)c2ccc3c(c2)CCC3)C1 (configuration not stated)	4%

Two compounds picked at random from those above, as already listed:
SMILES	hNpr1 antagonist
COCC(=O)N1CCCN(c2cc(C3CC(O)C3)ncn2)CC1 (configuration not stated)	0%
O=C(NCC(F)F)C1CN(c2cccc(Cl)c2)C(=O)N1 (configuration not stated)	13%&13%[70.6 µM]

3 entries already listed, arranged by the value under hNpr1 antagonist, lowest first:
SMILES	hNpr1 antagonist
CCOc1ccc(-c2cc3c(=O)n(CCNC(=O)c4ccncc4)ccn3n2)cc1	-17%
O=C(Nc1ccccc1)O[C@@H]1CO[C@H]2[C@@H]1OC[C@@H]2NS(=O)(=O)c1cccc2cccnc12	-9%
CN(C)C[C@@H]1CN(C2CCOCC2)C[C@H]1NC(=O)c1cn(C)cn1	-4%

(further entries)
SMILES	hNpr1 antagonist
O=C1NCCCCCCN(C(=O)NCc2ccccc2)[C@H]2CCCC[C@@H]12	4%
CC(C)(C(=O)O)c1cnc(N2CC[C@@H](O)C2)nc1N1CCOCC1	0%
CC(=O)Nc1ccccc1-c1nccc2c(=O)cc(N(C)c3ccccc3)oc12	-6%[70.6 µM]
O=C([C@H]1C[C@@H](F)CN1S(=O)(=O)c1ccc(C(F)(F)F)cc1)N1CCOCC1	1%
CS(=O)(=O)c1ccc(O[C@H]2COCCN(Cc3cccnc3)C2)cc1	-4%[70.6 µM]
CN(Cc1ccccc1)C(=O)C[C@@H]1c2nc(NC(=O)C(C)(C)C)sc2C[C@@H]2[C@](C)(CO)[C@H](O)CC[C@]21C	-1%
O=C(c1cccc(OC(F)(F)F)c1)N1CCCC1c1nncn1Cc1ccncc1 (configuration not stated)	1%

Compound activity (PubChem BioAssay)
